Bioassay records: PubChem, National Center for Advancing Translational Sciences (NCATS)
TRPML1 blocker = blocks the human TRPML1 channel. AID 624415. activity change, negative = inhibition, % (test concentration not listed). TRPML1-inducible cells, Ca2+ dye fluorescence, FDSS; stronger effect = lower value; inhibition of EC80 agonist-evoked calcium signal. 390,000 compounds, 0.02% hits; in the data active means activity change below about -50%; inconclusive means about -30% to -50%; inactive means above about -30%;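 also: stimulus is agonist 54-4 at its EC80 concentration; % is scaled to controls: 0 for no effect and ±100 for the full control effect; compound concentration not given in the record; the text of the record puts the active cut at -80%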
Target sequence (Q9GZU1 whole entry, looked up): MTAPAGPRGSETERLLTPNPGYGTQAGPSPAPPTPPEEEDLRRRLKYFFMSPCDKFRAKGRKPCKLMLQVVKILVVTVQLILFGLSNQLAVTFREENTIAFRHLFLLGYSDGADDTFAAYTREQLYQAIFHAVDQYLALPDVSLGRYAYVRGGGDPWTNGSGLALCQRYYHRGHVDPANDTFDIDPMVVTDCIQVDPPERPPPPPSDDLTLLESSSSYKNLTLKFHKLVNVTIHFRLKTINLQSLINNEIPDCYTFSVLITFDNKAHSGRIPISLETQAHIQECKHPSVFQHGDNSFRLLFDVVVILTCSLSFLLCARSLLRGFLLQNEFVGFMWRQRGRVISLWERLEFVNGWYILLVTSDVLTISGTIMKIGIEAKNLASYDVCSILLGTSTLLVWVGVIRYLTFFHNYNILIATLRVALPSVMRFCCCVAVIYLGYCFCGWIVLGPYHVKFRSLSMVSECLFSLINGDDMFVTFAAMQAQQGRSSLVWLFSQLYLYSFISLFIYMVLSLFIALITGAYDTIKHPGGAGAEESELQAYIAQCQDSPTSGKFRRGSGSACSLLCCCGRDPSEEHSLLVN
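Tet-induced TRPML1-DL cells loaded with Ca8 no-wash calcium dye were read kinetically on FDSS. Compound addition was followed by EC80 agonist 54-4 (4 uM final); inhibition was read over 110 s.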
gsp antag = antagonists of gsp mutant (McCune-Albright syndrome) | AID 624288 | Potency, µM (highest dose often 76.9 µM), for inactives: at the top dose activity change, negative = inhibition, actives largely listed as inhibitors | gsp-mutant cells, cAMP HTRF, 30 min; control for the full effect not named in the record | 340,000 compounds, 0.4% hits; active = falling curve of any shape with a large fitted effect; inconclusive = falling curve, mostly with a smaller effect; inactive = flat or rising curve; cell line not stated here;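 also: intracellular cAMP measured with PDE inhibitor Ro 20-1724 present during compound exposure; potency is read from the fitted curve at half-maximal effect; % is scaled to controls: 0 for no effect and ±100 for the full control effect; nearly all actives have a fitted effect of over 65% in size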
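HTRF cAMP read-out (cAMP-d2 plus anti-cAMP antibody-K in lysis buffer, 30 min RT). Before lysis, cells are exposed to compounds with […] for 30 min at 37C in DPBS containing Ca/Mg, BSA and Tween 20.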
gsp ag = activates gsp, the McCune-Albright syndrome mutation. gsp mutant cells, cAMP HTRF, 30 min; control for the full effect not named in the record. Potency, µM (series often up to 76.9 µM), for inactives: at the highest dose activation (cAMP increase), usual class: activators. 340,000 compounds, 0.13% hits. AID 624287; active = well fitted activation curve with a large enough effect; inconclusive = small, poorly fitted or top-dose-only effect, or another doubt; inactive = no such curve, though single readings can be large or run the other way; cell line not stated here;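 also: phosphodiesterase inhibitor Ro 20-1724 added with compounds to block cAMP breakdown; potency is read from the fitted curve at half-maximal effect; nearly all actives have a fitted effect of over 60% in size; about a fifth of the inactives were tested at one dose only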
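Cells in DMEM/10% FBS with G418 were pretreated with compounds in DMSO plus […] (300 uM stock) for 30 min at 37C. cAMP was measured by HTRF (cAMP-d2 plus anti-cAMP antibody-K) after 30 min at room temperature.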
TRPML1 ag = activates the human TRPML1 channel; Q9GZU1; TRPML1-expressing cells, Ca2+ dye fluorescence, FDSS; host cell line not named in the record; reference of the full effect not given here; activation, % (concentration not given with the values); 410,000 compounds, 0.12% hits; AID 624414; in the data active = activation above about 50%; inconclusive = about 30% to 50%; inactive = below about 30%; also: 0% is about no effect; the text of the record puts the active cut at 80%
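Cells: TRPML1-DL, 1X Tet inducer, ~16 h at 37 degrees C/5% CO2. Dye: ABD Ca8 no-wash + quencher, 45-90 min RT. Read: 10 s baseline, compound add, 110 s agonist phase; 54-4 EC80 (4uM final), 110 s antagonist phase.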
Menin-MLL FL inh = menin-MLL binding inhibition, fluorescein peptide | Fluorescence polarization, fluorescein-MLL peptide displacement from menin | FP activity change, % at 61.4 µM | 290,000 tested, under 10 active | AID 1766; inconclusive = falling polarisation curve, or a change in total fluorescence; inactive = total fluorescence flat and polarisation flat or rising; no compound was filed as active; the % refers to the polarisation; negative = inhibition;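 also: % of control where 0% means no effect; inhibitors lower the polarisation; unlabelled MLL peptide was the positive control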
ClpP mod = qHTS Assay for Activators of ClpP; ATP-dependent Clp protease proteolytic subunit (Bacillus subtilis (strain 168)), P80244; purified B. subtilis ClpP, FRET peptide cleavage, 20 min; AID 651965, 2013; Potency, µM (series often up to 57.5 µM), without a hit: at the top dose activity change, negative = active; 340,000 compounds, 1.9% hits; active = well fitted falling curve with a large enough effect; inconclusive = small, poorly fitted or top-dose-only effect; inactive = no such curve, though single readings can be large or run the other way; also: potency is read from the fitted curve at half-maximal effect; the source files actives as falling curves though it sought activators and does not explain the sign; nearly all actives have a fitted effect of over 65% in size; many hits overshoot -100%
Target sequence (P80244 whole entry, looked up): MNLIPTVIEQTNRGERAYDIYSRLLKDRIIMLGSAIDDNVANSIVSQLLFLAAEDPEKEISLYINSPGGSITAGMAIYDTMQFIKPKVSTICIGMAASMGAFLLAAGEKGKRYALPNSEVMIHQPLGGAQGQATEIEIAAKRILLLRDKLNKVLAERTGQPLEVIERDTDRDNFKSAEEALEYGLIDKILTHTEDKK
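FRET quenching reversal measured ClpP activation: 10 microg/mL B. subtilis ClpP at pH 8 with the FRET-FV decapeptide, read at 430 nm after 320 nm excitation. The 20-min minus 0-min signal was scaled between DMSO/no-enzyme wells and ADEP (5.8 microM final).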
Active calls of the source: *; ? = inconclusive; · = no result given; [ ] = dose if it differs, or a comment.

SMILES	TRPML1 blocker	gsp antag	gsp ag	TRPML1 ag	Menin-MLL FL inh	ClpP mod
O=c1[nH]c2ccccc2cc1CN(CC1CCCO1)S(=O)(=O)c1ccc(Cl)cc1 (stereo not drawn)	-15	-10%	-4%	-0.7	-6.9	·
CC(=O)N1c2ccc(S(=O)(=O)N3CCC(C(=O)Nc4cccc(F)c4)CC3)cc2CC1C (stereo not drawn)	6	?	?	-1.0	·	-0.7%
CC(=O)N[C@@H](Cc1c[nH]c2ccccc12)C(=O)NC1CC1	·	1%	?	·	0.8	-4.5%
COC(=O)N1C(=O)[C@](Cc2ccccc2)(c2ccccc2)N1C(=O)OC	-3	10%	·	-0.6	0.3	0.6%
O=C(OCc1nc2ccccc2s1)c1cccc(N2C(=O)CCC2=O)c1	-10	8%	-5%[15.4 µM]	1.1	1.2	·
Cc1cnc(C(=O)NCC(c2ccccc2)c2ccccc2)cn1	·	-2%	3%	·	-0.1	-3.1%
CC(C)OC(=O)C1C2C=CC3(CN(C(C)c4ccc(Br)cc4)C(=O)C13)O2 (stereo not drawn)	3	6%	5%	0.3	-17	0.8%
COc1cccc(CNC(=O)c2ccccc2-c2ccccc2)c1	-8	-3%	-52%[inhibitor]	0.6	·	1.3%
Cc1ccc(CSc2nnc(SCC(=O)N/N=C/c3ccccc3OCC(=O)O)s2)cc1	-2	3%	-13%	-0.7	-1.0	-2.9%
CC1=C(C(=O)Nc2cccnc2)C(c2cccc(F)c2)n2nc(SCc3ccccc3)nc2N1 (stereo not drawn)	36	·	·	-0.3	·	?
Cc1cc(C)c(NC(=O)CNC(=O)c2ccc(-n3cncn3)c([N+](=O)[O-])c2)c(C)c1	-11	5%	-12%[15.4 µM]	0.7	·	·
COc1ccc(C(=O)NC(=S)NNC(=O)CCc2ccccc2)cc1	0	-10%	-52%[inhibitor]	-0.3	2.8	-1.0%
COc1ccc([C@H]2CN(CCc3ccccc3)C(=O)[C@@H]2CC(=O)Nc2ccccc2)cc1	6	·	?	0.2	·	-0.9%
O=[N+]([O-])c1cccc(SSc2cccc([N+](=O)[O-])c2)c1	-2	-3%	5%	2.8	·	·
COc1ccc(NC(=O)C(=O)N2N=C3CCCCC3C2(O)C(F)(F)F)cc1 (stereo not drawn)	19	3%	-1%	3.2	-5.3	-1.5%
COc1ccc(NS(=O)(=O)c2cc(NC(=O)c3cnc(C)cn3)ccc2N2CCCC2)cc1	-12	5%	-12%	0.3	13	-14%
CN(CC(=O)Nc1ccc(F)cc1)C(=O)c1ccc(N2C(=O)CCC2=O)cc1	5	9%	-27%	-0.1	·	1.3%
Cc1nc(-c2ccc(C)c(S(=O)(=O)N3CCC(C(=O)NCc4ccc(Cl)cc4)CC3)c2)no1	-9	·	·	0.1	·	-4.6%
COc1ccc(CC2=CC(=O)c3ccccc3C2=O)cc1	·	-2%	11%	·	14	-0.7%
O=S(=O)(NCCc1csc2nc(-c3ccccc3)nn12)c1cc(F)ccc1F	10	·	·	2.3	·	3.0%
CC(Oc1ccccc1F)C(=O)NNC(=O)c1cc2ccccc2o1 (stereo not drawn)	0	-7%	15%[15.4 µM]	-0.2	-3.5	·
Cc1c(C(=O)NN2CCOCC2)oc2ccccc12	-15	0%	-14%	0.3	2.4	·
Cc1c(-c2ccccc2)c(=O)oc2cc(O)ccc12	3	2%	?	-0.7	5.4	3.8%
COc1ccc(C(=O)Nc2nnc(S(=O)(=O)N(CC(C)C)c3ccccc3)s2)cc1	11	·	·	1.7	·	-21%
COc1cc(SC)ccc1C(=O)NNC(=O)C1COc2ccccc2O1 (stereo not drawn)	-1	-1%	-11%[15.4 µM]	0.9	·	-2.6%
New compounds follow
SMILES	TRPML1 blocker	gsp antag	gsp ag	TRPML1 ag	Menin-MLL FL inh	ClpP mod
Cc1ccsc1/C=C(\C#N)C(=O)NCCCN1CCOCC1	13	4%	-6%	-0.5	1.0	1.6%
Cc1ccc(N(C(=O)c2sc(C)nc2C)C(C(=O)NCc2ccco2)c2ccccc2)cc1 (stereo not drawn)	6	?	15%	1.2	4.1	-1.4%
Cc1nc(-c2ccc(NS(=O)(=O)c3ccccc3)cc2)cs1	-25	-9%	-45%[inhibitor]	0.5	-3.1	-3.1%
CSC1=N/C(=C/c2ccc(-n3cncn3)cc2)C(=O)N1	12	-10%	5%[15.4 µM]	-0.3	12	·
Cc1cc(N2CCCCC2)nc2ccc(NC(=O)CCC(=O)N3CCN(c4ccccc4)CC3)cc12	-2	·	·	-0.1	·	4.3%
Cc1c(Br)cc(-c2nnco2)cc1Br	-10	10%	?	0.6	-1.4	-0.6%
O=C(CNC(=O)c1cccs1)OCC(=O)c1ccccc1	20	3%	5%	4.3	0.9	-2.4%
CCCNC(=O)C1(C)CCCN(Cc2ccc(C#N)cc2)C1 (stereo not drawn)	-14	·	·	-0.3	·	-1.1%
CCCN(C(=O)c1ccc(OCC(C)C)cc1)c1c(N)n(Cc2ccccc2)c(=O)[nH]c1=O	-4	6%	7%	-0.3	·	-3.3%
Cc1c(CCO)c(=O)n(-c2ccccc2)n1S(=O)(=O)c1ccc([N+](=O)[O-])cc1	5	-10%	6%[15.4 µM]	2.8	2.0	·
Cc1cccc(Cn2c(SCc3ccc(C(=O)N4CCC(C)CC4)cc3)nc3ccncc32)c1	10	·	·	2.6	·	-13%
CCOc1ccc(OCC(=O)Nc2ccc(S(=O)(=O)Nc3cc(C)on3)cc2)cc1	21	·	·	-0.8	·	0.3%
Cn1cnc(S(=O)(=O)N2CCC(C(=O)N3CCN(c4ccccc4F)CC3)CC2)c1	15	·	·	0.5	·	3.5%
O=C(CSc1nc(N2CCOCC2)nc(N2CCOCC2)n1)Nc1cccc(C(F)(F)F)c1	0	6%	-8%[15.4 µM]	-0.1	-0.4	0.8%
CSc1cccc(NC(=O)CSc2nc3ccccc3o2)c1	-2	5%	-18%	-0.3	3.1	-5.6%
COC(=O)c1c(C)oc(C)c1S(=O)(=O)NCc1ccco1	36	8%	12%	1.0	2.5	-2.8%
COc1ccc(-c2cn3cc(C)ccc3n2)cc1OC	7	-9%	2%	-0.7	0.4	?
NNC(=O)c1sccc1OCc1cccc(C(F)(F)F)c1	53	-14%	-19%	2.2	-0.8	·
Cc1ccn2c(c1)nc(=S)n2C(=O)c1ccccc1	14	4%	-4%	0.3	24	-5.7%
Cc1ccc(-c2nn3c(C)nnc3c3ccccc23)cc1S(=O)(=O)N(C)CCO	11	15%	?	-0.5	4.5	-15%
Cc1ccc(NS(=O)(=O)c2cc(C(=O)Nc3cccc([N+](=O)[O-])c3)ccc2C)cc1	33	-28%	-22%	2.1	2.5	-3.9%
O=C(CCc1nnc(Cc2c[nH]c3ccccc23)o1)NC(C1CC1)C1CC1	34	-2%	-1%[15.4 µM]	0.4	1.6	·
CCN(C(=O)CCc1nc(-c2ccccc2F)no1)c1cc(OC)ccc1OC	-5	-36%	-1%	2.0	1.5	-0.5%
O=C(CCN1CCN(C/C=C/c2ccccc2)CC1)Nc1ccc(Cl)cc1	-6	-5%	1%	0.7	3.1	1.3%
O=C(Nc1ccccn1)c1ccc2c(=O)n3c(nc2c1)CCCCC3	24	-9%	22%	3.7	·	-2.4%

Single values from the list:
Result for Cc1nc(-c2ccc(NS(=O)(=O)c3ccccc3)cc2)cs1 in Menin-MLL FL inh: -3.1
Result for Cc1ccc(NS(=O)(=O)c2cc(C(=O)Nc3cccc([N+](=O)[O-])c3)ccc2C)cc1 in gsp antag: -28%
Result for Cn1cnc(S(=O)(=O)N2CCC(C(=O)N3CCN(c4ccccc4F)CC3)CC2)c1 in TRPML1 ag: 0.5

6 entries from above, reformatted.
Values run as follows: TRPML1 blocker	gsp antag	gsp ag	TRPML1 ag	Menin-MLL FL inh	ClpP mod
> O=C(CSc1nc(N2CCOCC2)nc(N2CCOCC2)n1)Nc1cccc(C(F)(F)F)c1
 : 0	6%	-8%[15.4 µM]	-0.1	-0.4	0.8%
> CSc1cccc(NC(=O)CSc2nc3ccccc3o2)c1
 : -2	5%	-18%	-0.3	3.1	-5.6%
> COC(=O)c1c(C)oc(C)c1S(=O)(=O)NCc1ccco1
 : 36	8%	12%	1.0	2.5	-2.8%
> COc1ccc(-c2cn3cc(C)ccc3n2)cc1OC
 : 7	-9%	2%	-0.7	0.4	?
> NNC(=O)c1sccc1OCc1cccc(C(F)(F)F)c1
 : 53	-14%	-19%	2.2	-0.8	·
> Cc1ccn2c(c1)nc(=S)n2C(=O)c1ccccc1
 : 14	4%	-4%	0.3	24	-5.7%

Going on with the list.
SMILES	TRPML1 blocker	gsp antag	gsp ag	TRPML1 ag	Menin-MLL FL inh	ClpP mod
NC(=O)CCn1cnc2ccccc21	5	9%	16%[15.4 µM]	1.2	5.2	·
O=C(NCC1CCCO1)c1ccc2c(=O)n(-c3ccccc3)c(=S)[nH]c2c1 (stereo not drawn)	-3	1%	3%[15.4 µM]	-0.2	0.0	2.2%
CC(C)(C)C1CCc2c(sc(NC(=O)c3ccccc3F)c2C(=O)N2CCCCC2)C1 (stereo not drawn)	-17	·	·	1.5	·	-3.4%
CN1OC[C@@H]2CN(C(=O)CCc3ccccc3)[C@H](c3cccc(-c4ccccc4)c3)C[C@@H]21	11	-12%	·	1.0	·	0.6%
CCOC(=O)NC(=S)Nc1cccc(C)n1	-12	·	-115%[inhibitor]	0.0	·	-1.5%
CS(=O)(=O)Cc1ccc(C(=O)NC(c2ccccc2)c2ccccc2)cc1	3	2%	3%	-0.3	0.3	·
Cc1cc(C(=O)N/N=C/c2sccc2C)no1	-7	6%	-1%[15.4 µM]	0.0	5.1	0.0%
CCOC(=O)c1c(/N=C/c2cc([N+](=O)[O-])ccc2O)sc(C)c1C	0	16%	-10%[15.4 µM]	-0.2	?	4.1%

Reprinted at random: 5 compounds from above.
SMILES	TRPML1 blocker	gsp antag	gsp ag	TRPML1 ag	Menin-MLL FL inh	ClpP mod
CSC1=N/C(=C/c2ccc(-n3cncn3)cc2)C(=O)N1	12	-10%	5%[15.4 µM]	-0.3	12	·
CCOC(=O)NC(=S)Nc1cccc(C)n1	-12	·	-115%[inhibitor]	0.0	·	-1.5%
CC(C)OC(=O)C1C2C=CC3(CN(C(C)c4ccc(Br)cc4)C(=O)C13)O2 (stereo not drawn)	3	6%	5%	0.3	-17	0.8%
COc1ccc(C(=O)Nc2nnc(S(=O)(=O)N(CC(C)C)c3ccccc3)s2)cc1	11	·	·	1.7	·	-21%
CCN(C(=O)CCc1nc(-c2ccccc2F)no1)c1cc(OC)ccc1OC	-5	-36%	-1%	2.0	1.5	-0.5%
